Rango complex inh: inhibitors of Rango-importin beta complex formation; Rango CFP/YFP FRET sensor + importin beta, 45 min; Potency, µM (series often up to 92.2 µM), without a hit: top-dose inhibition of complex formation; actives 0.031% (n = 340,000); active = rising FRET ratio curve, often small or poorly fitted; inconclusive = mostly compound fluorescence or quenching in the first reads; inactive = flat curves in all reads;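 also: potency is read from the fitted curve at half-maximal effect; 0% = DMSO wells and 100% = buffer wells lacking importin beta; nearly all actives have a fitted effect of over 15% in size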
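FRET biosensor (snurportin 1 IBB flanked by EYFP and cerulean), 50 nM, with compound 5 min, then 0.125 microM importin beta in PBS, 1 mM DTT, 0.02% Tween-20, 0.1% BSA. CFP/YFP ratio read after 45 min at room temperature; pre-read flags interference.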
Rango release inh: inhibition of RanGTP-driven Rango-importin beta dissociation | Potency, µM (doses to about 46.1 µM), for the others: top-dose activity change, negative = inhibition | actives 0.071% (n = 340,000) | Biochemical FRET Rango-importin beta, RanGTP-induced dissociation | AID 540253; active means falling FRET ratio curve, often poorly fitted, with flat reads before Ran was added; inconclusive means other falling curves, or compound fluorescence or quenching; inactive means flat or rising ratio curve;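 also: potency is read from the fitted curve at half-maximal effect; % of control where 0% means no effect; nearly all actives have a fitted effect of over 45% in size; -100% = wells without RanGTP and RCC1; the record marks most hits as doubtful in a second field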
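Compounds preincubate 5 min with complex of recombinant Rango and importin beta in PBS with 1 mM DTT. Ran (0.6 uM) loaded with 2 mM GTP plus 0.2 uM RCC1 starts dissociation; FRET is recorded 45 min later.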
miR-21 reporter: miR-21 reporter, rising signal; HeLa miR-21 FLuc reporter, luciferase, 48 h; Potency, µM (top dose mostly 38.3 µM), for the others: top-dose reporter change, positive = more light; 340,000 tested, under 10 active; active = well fitted rising curve with a large enough effect; inconclusive = small, poorly fitted or top-dose-only effect; inactive = no such curve, though single readings can be large or run the other way;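 also: % of control where 0% means no effect; miR-21 action dims this reporter so a rising signal means less miR-21 action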
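Compounds were titrated across several concentrations (up to approximately 40 uM) and incubated 48 hours with HeLa miR-21-FLuc reporter cells (miR-21 target sequence downstream of FLuc, endogenous miR-21). Readout was firefly luciferase luminescence after lytic detection reagent.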
GLA inh pH 4.5: alpha-galactosidase A (human) inhibition, pH 4.5; activity change, negative = inhibition, % at 105 µM; purified enzyme, 4-MU-alpha-Gal fluorescence, pH 4.5; 230,000 tested, under 10 active; P06280; inconclusive = small, poorly fitted or top-dose-only inhibition, or a rising curve; inactive = flat fitted curve, though single readings scatter; no compound was filed as active;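 also: 0% = full activity with enzyme and -100% = basal without enzyme; dose as in the result columns while the protocol names 77 µM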
Target sequence (P06280 whole entry, looked up): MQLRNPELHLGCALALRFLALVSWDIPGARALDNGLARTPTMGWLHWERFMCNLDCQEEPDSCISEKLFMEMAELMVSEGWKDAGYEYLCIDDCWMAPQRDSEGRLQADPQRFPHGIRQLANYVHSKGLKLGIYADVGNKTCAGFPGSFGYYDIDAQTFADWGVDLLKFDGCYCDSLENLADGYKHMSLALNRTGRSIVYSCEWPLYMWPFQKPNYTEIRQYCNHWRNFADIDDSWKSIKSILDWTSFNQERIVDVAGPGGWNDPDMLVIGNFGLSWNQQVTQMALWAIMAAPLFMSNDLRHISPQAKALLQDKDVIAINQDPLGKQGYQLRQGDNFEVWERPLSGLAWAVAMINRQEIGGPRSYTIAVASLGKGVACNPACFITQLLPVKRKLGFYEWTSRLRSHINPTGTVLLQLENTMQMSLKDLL
Starred values were filed as active, the others as inactive; u = inconclusive; x = no result given; & = joins results of further samples.

SMILES	Rango complex inh	Rango release inh	miR-21 reporter	GLA inh pH 4.5
CCCCOc1ccc(Nc2nc(C)cc(C)c2C#N)cc1	-6.1%	1%	-15%	14
Cc1cccc(C)c1NC(=S)NCCc1ccc(O)c(O)c1	0.2%	15%	-5%	-3
Fc1ccc(-c2cc(C(F)(F)C(F)F)[nH]n2)cc1	4.1%	1%	-17%	-2
O=C(N/C(=C\c1ccc(Cl)cc1)C(=O)N1CCOCC1)c1ccco1	-0.2%	-9%	1%	x
CC1CCCCN1S(=O)(=O)c1ccc(NC(=O)CSc2nnnn2C)cc1 (stereo not drawn)	-0.5%	-4%	5%	-5
CC(=O)Nc1ccc(NC(=O)Nc2cccc3ccccc23)cc1	0.8%	-2%	-11%	x
CNC(=O)NC(=O)CSc1nnc(-c2ccco2)n1-c1ccccc1	-1.4%	12%	-4%	x
c1ccc2c(c1)nnn2Cc1nnc2sc(-c3ccncc3)nn12	3.4%	-15%	-8%	-1
Cc1cccc(OCCC(=O)N(C)CC(=O)Nc2cccc3ccccc23)c1	0.3%	0%	-5%	1
COc1ccccc1C(=O)NC(=O)CSc1nnc(N)s1	-1.4%	2%	x	x
CCC(C(=O)Nc1cccnc1)n1c(=O)[nH]c2ccccc2c1=O (stereo not drawn)	0.3%	4%	-2%	x
CCN(CC)S(=O)(=O)c1nnc(NC(=O)c2ccco2)s1	-3.4%	-14%	-17%	x
CCOC(=O)CN1C(=O)N[C@@H](c2cccs2)C(C(=O)OC)=C1C	0.6%	-9%	x	-8
O=C(CNC(=O)[C@@H]1Cc2ccccc2CN1)Nc1ccc2c(c1)OCCO2	-4.2%	-7%	-26%	x
CC1CCCCC12NC(=O)N(CC(=O)NCc1ccccc1Cl)C2=O (stereo not drawn)	-0.3%	7%	x	x
Cn1nc(N)c2c(-c3ccccc3)c(C#N)c(N)nc21	0.2%	1%	-5%	-1
C#CCOCCOCCOCCNc1nc(N2CCN(C(=O)[C@H](Cc3ccc(O)cc3)n3cc([C@@H](N)CC(C)C)nn3)CC2)nc(N2CCN(C(=O)[C@H](Cc3ccc(O)cc3)n3cc([C@@H](N)CC(C)C)nn3)CC2)n1	x	x	1%	-4
Cc1nc2sccn2c(=O)c1S(=O)(=O)NCc1ccccc1Cl	0.8%	-1%	2%	x
O=C(O)C1Cc2ccccc2-c2ccccc2C1	-1.3%	1%	-4%	x
COc1ccc2[nH]c3c(c2c1)CCN1C(=O)C(CC(=O)NCCCn2ccnc2)C[C@H](C(=O)N(C(C)C)C(C)C)[C@@]31C (stereo partly drawn)	-3.2%	0%	x	x

By substructure, the compounds so far containing a cyano group (2)
SMILES	Rango complex inh	Rango release inh	miR-21 reporter	GLA inh pH 4.5
CCCCOc1ccc(Nc2nc(C)cc(C)c2C#N)cc1	-6.1%	1%	-15%	14
Cn1nc(N)c2c(-c3ccccc3)c(C#N)c(N)nc21	0.2%	1%	-5%	-1

(more compounds)
SMILES	Rango complex inh	Rango release inh	miR-21 reporter	GLA inh pH 4.5
COc1cccc(OC)c1OCCCCN1CCC(Cc2ccccc2)CC1	-3.1%	15%	-1%	-6
CCCCNC(=O)CN(c1cccc(Br)c1)S(C)(=O)=O	-2.9%	-2%	1%	-7
c1coc(-c2ccnc3nc(-n4cccc4)nn23)c1	1.3%	-2%	0%	-14
CN(C)CCCN(C(=O)c1ccc(Br)s1)c1nc2cc3c(cc2s1)OCO3	1.3%	-9%	-3%	9
O=C(O)CCCCCNS(=O)(=O)c1ccc2c3c(cccc13)C(=O)N2	u	u	-5%	x
O=C(CCNS(=O)(=O)c1ccc(OC(F)(F)F)cc1)N1CCN(C/C=C/c2ccccc2)CC1	-0.9%	18%	28%	x
O=C(N1CCN(c2ccccc2)CC1)C1(c2cccs2)CCOCC1	-4.5%	0%	-3%	-9
CN(C)c1ccc(NC(=O)CSc2nnc(-c3ccco3)c(-c3ccco3)n2)cc1	0.6%	-2%	7%	x
COc1ccc(OC)c(C2C(C(=O)O)c3ccccc3C(=O)N2C)c1 (stereo not drawn)	-3.8%	-1%	-3%	-8
COc1cccc(NC(=O)N2CCC(NC(=O)C3CCCCC3)CC2)c1	-0.2%	-17%	1%	x
O=C(c1cc(-c2ccc(F)cc2)on1)N1CCN(c2ccc(F)cc2)CC1	-4.5%	1%	0%&-1%	x
COc1cccc(NC(=O)COC(=O)c2c(F)cccc2Cl)c1	5.3%	-2%	-52%	8
Cc1nc2ccccn2c1P(=O)(N1CCCCC1)N1CCCCC1	-2.2%	21%	-13%	6
O=C(Nc1nnc(CCc2ccccc2)s1)c1ccccc1	-4.0%	0%	-39%	x
O=C(CSc1nc2cc([N+](=O)[O-])ccc2n1-c1ccc(F)cc1)NC1CCS(=O)(=O)C1 (stereo not drawn)	2.6%	0%	-13%	-25
Cc1cc(C(=O)COC(=O)c2ccc[nH]c2=O)c(C)n1C	-0.4%	1%	-33%	8
CNC(=O)c1ccsc1NC(=O)CS(=O)(=O)c1ccc(Cl)cc1	-2.3%	-1%	6%	x
CC1CCCC(C)N1S(=O)(=O)c1ccc(S(=O)(=O)N2CCOCC2)cc1 (stereo not drawn)	-1.3%	-23%	7%	6
CCN(CC)CCCNC(=O)C1c2ccccc2C(=O)N1Cc1ccc(C)cc1 (stereo not drawn)	-1.9%	6%	-4%	2
CC(=O)c1c(O)cc(C(C)C)n(-c2ccccc2)c1=O	9.0%	-7%	-3%	0

Entries above with a furan ring, fused or not, in the order listed:
SMILES	Rango complex inh	Rango release inh	miR-21 reporter	GLA inh pH 4.5
O=C(N/C(=C\c1ccc(Cl)cc1)C(=O)N1CCOCC1)c1ccco1	-0.2%	-9%	1%	x
CNC(=O)NC(=O)CSc1nnc(-c2ccco2)n1-c1ccccc1	-1.4%	12%	-4%	x
CCN(CC)S(=O)(=O)c1nnc(NC(=O)c2ccco2)s1	-3.4%	-14%	-17%	x
c1coc(-c2ccnc3nc(-n4cccc4)nn23)c1	1.3%	-2%	0%	-14
CN(C)c1ccc(NC(=O)CSc2nnc(-c3ccco3)c(-c3ccco3)n2)cc1	0.6%	-2%	7%	x

Further results follow.
SMILES	Rango complex inh	Rango release inh	miR-21 reporter	GLA inh pH 4.5
NCc1nc(-c2ccc(Cl)cc2)no1	2.7%	-9%	-16%	3
COc1ccc(NC(=O)N2CCCC2C(=O)NC23CC4CC(CC(C4)C2)C3)cc1 (stereo not drawn)	-0.1%	11%	-1%	x
CN(C)CCCN1C(=O)c2cc3ccccc3cc2C1=O	2.0%	5%	0%	x
CCOC(=O)CSc1nc(C)[nH]c1[N+](=O)[O-]	-3.1%	0%	1%	-3
N#CC1=C(N2CCOCC2)/C(=C\c2ccccc2)CC1	-3.4%	10%	-8%	-8
Cc1cccc(-c2cc3nc4c(c(N5CCC6(CC5)OCCO6)n3n2)CCCC4)c1	7.5%	25%	x	x
O=C(NCC(c1ccco1)N1CCCCC1)c1ccc(NS(=O)(=O)c2ccc(F)cc2)cc1 (stereo not drawn)	-0.9%	-11%	3%	x
CCOCc1nnc(NC(=O)c2cc(OC)c(OC)c(OC)c2)s1	-0.5%	4%	3%	-1
O=S(OCCN1CCOCC1)C(c1ccccc1)c1ccccc1 (stereo not drawn)	u	-9%	x	x
O=C(c1ccc(F)cc1)N1CCN(c2ccc(N3CCOCC3)nn2)CC1	-1.9%	-8%	10%	11
Cc1cc(Cl)ccc1OCC(=O)NCc1ccncc1	2.1%	8%	-30%	-2
CC(=O)Nc1nc2ccccc2n1CCOc1ccccc1	2.3%	11%	-3%	-10
Cc1ccnc(NS(=O)(=O)c2ccc(NC(=O)c3c(-c4ccccc4Cl)noc3C)cc2)n1	2.8%	2%	-11%	3
CC(C)c1nc(SCC(=O)Nc2ccc(N3CCOCC3)cc2)c2ccccc2n1	3.5%	-4%	-5%	-1
O=C(NCC(c1ccco1)N1CCN(c2ccccc2F)CC1)c1ccco1 (stereo not drawn)	-0.5%	0%	x	x
CC(C)c1ccc(NC(=O)NC(C)c2ccc3c(c2)OCO3)cc1 (stereo not drawn)	5.4%	-4%	-1%	x
O=C(NCc1ccco1)C(c1cccs1)N(C(=O)Cc1cccs1)c1ccccc1 (stereo not drawn)	5.5%	-1%	13%	1
CCCC(=O)Nc1ccc(C(=O)Nc2nnc(COCC)s2)cc1	-2.3%	-1%	-8%	0
O=C(/C=C/c1ccccc1[N+](=O)[O-])Nc1ccccc1	4.9%	39%	-55%	-5
N#CC(c1ccc(Cl)nn1)c1ccccc1Cl (stereo not drawn)	1.0%	-4%	0%	-4
CCOCCCNC(=O)c1cc2c(=O)n3ccccc3nc2s1	u	-14%	-48%&-59%	x
CC(OC(=O)c1ccccc1C(=O)N(C)c1ccccc1)C(=O)Nc1ccc(C(N)=O)cc1 (stereo not drawn)	-0.4%	1%	x	x
CC(C)n1nc(C(=O)Nc2nnc(C3CC3)s2)c2ccccc2c1=O	0.4%	0%	-14%	-3
CCOC(=O)C1=CN(Cc2ccco2)S(=O)(=O)N(C)C1c1ccc2ccccc2c1 (stereo not drawn)	-1.2%	-8%	x	x
COc1ccc(NC(=O)CN2CCN(CC(=O)Nc3ccc(F)cc3F)CC2)cc1	-0.3%	6%	-4%	x
CC(C)(O)CC[C@@H](O)[C@](C)(O)C1CC[C@@]2(O)C3=CC(=O)[C@@H]4C[C@@H](O)[C@@H](O)C[C@]4(C)C3CC[C@]12C (stereo partly drawn)	1.0%	-16%	x	x
Oc1oc(-c2ccccc2Br)nc1/C=N/c1ccccn1	-1.4%	-13%	-28%	-4
CCS(=O)(=O)NCC(c1cccnc1)N1CCN(c2ccccc2)CC1 (stereo not drawn)	0.2%	6%	1%	5
Cc1ccc(C(=O)NNC(=O)c2cc3ccccc3cc2O)cc1	u	u	-11%	x
CCCNC(=O)COc1coc(CN2CCN(c3ccccc3OC)CC2)cc1=O	5.1%	-6%	5%	x
S=c1[nH]nc(CSc2nc3ccccc3s2)o1	-2.5%	7%	-11%	-5
CC(=O)c1ccccc1N(C(=O)c1ccco1)C(C(=O)NC1CCCC1)c1ccc(C)cc1 (stereo not drawn)	-0.3%	5%	-4%	x
Nc1nn(-c2ccccc2)nc1C(=O)OCc1ccccc1F	x	x	-39%	-8
CCCC(=O)NCCCc1nc2ccccc2n1CCC	0.6%	5%	0%	1
CCCCCCC(=O)Cc1cc(OC)c(OC)cc1C=C(C(=O)OCC)C(=O)OCC	x	x	-16%	u
CCN(CC)CCOC(=O)c1cccc2c1-c1ccccc1C2O (stereo not drawn)	u	-12%	-9%	-2
O=C1C=C(c2ccc(-c3ccccc3)cc2)C[C@@H](c2ccc3c(c2)OCO3)C1	-0.8%	-5%	x	x
Cc1ccc2oc(=O)c3cnn(CC(=O)N4CCCc5ccccc54)c3c2c1	4.9%	-4%	-3%	-3
O=Cc1cc([N+](=O)[O-])ccc1N1CCN(Cc2ccc3c(c2)OCO3)CC1	-1.0%	15%	0%	x
S=C(Nc1ccc(Cl)cc1Cl)N1CCCCC1	0.3%	4%	-37%	3
O=C(C(Cc1ccccc1)n1cccc1)N1CCN(c2ncccn2)CC1 (stereo not drawn)	0.4%	-7%	4%	1
COc1ccc(CSc2nc(N3CCOCC3)c3c(c2C#N)CC(C)(C)OC3)cc1	3.5%	-1%	-13%	-2
O=C(NCCS(=O)(=O)N1CCN(c2ccccc2F)CC1)c1ccco1	2.0%	10%	x	x
Cc1ccc2c(c1)CCCN2C(=O)c1c(C)noc1C	4.1%	-14%	0%	-4
Cc1ccc(S(=O)(=O)c2nc(-c3cccs3)oc2NCCCN(C)C)cc1	-1.5%	0%	-13%	-7
O=C(COC(=O)C1CCN(S(=O)(=O)c2cccc3cccnc23)CC1)c1ccc(F)cc1	0.8%	-5%	0%	-15
COc1ccccc1C(OC(=O)c1cccs1)C(=O)NCC1CCCO1 (stereo not drawn)	-1.9%	-2%	-2%	-19
Cc1ccc(S(=O)(=O)N2CCCCC2)cc1NC(=O)C1CCC1	-3.5%	-16%	x	x
Cc1ccoc1C(=O)NCCNC(=O)c1occc1C	6.4%	-5%	x	x
Cc1ccc2nc(-c3ccc(SCC(=O)Nc4nnc(C)s4)nc3)[nH]c2c1	-4.1%	0%	-6%	-7

High-throughput results as filed in PubChem BioAssay.

This is a subset. The share of hits here may be higher or lower than overall.
